Screens deposited in PubChem by National Center for Advancing Translational Sciences (NCATS).
VACV mCherry inh = vaccinia inhibition (mCherry reporter). Potency, µM (series often up to 36.5 µM), without a hit: top-dose activity change, negative = inhibition, actives largely listed as inhibitors. AID 720579. Vaccinia virus mCherry reporter infection, fluorescence; about a quarter of the inactives have no number. 310,000 compounds, 0.63% hits; active = well fitted inhibition curve with a large enough effect; inconclusive = small, poorly fitted or top-dose-only effect; inactive = no such curve, though single readings can be large or run the other way; tested in A549 cells; further: nearly all actives have a fitted effect of over 35% in size; inactives centre near -10
VACV Venus inh = vaccinia inhibition (Venus reporter); AID 720580; Potency, µM (titrated, usually from 36.5 µM), inactives show top-dose activity change, negative = inhibition, most hits filed as inhibitors; Vaccinia virus Venus reporter expression, fluorescence; 330,000 compounds, 0.46% hits; active means well fitted inhibition curve with a large enough effect; inconclusive means small, poorly fitted or top-dose-only effect; inactive means no such curve, though single readings can be large or run the other way; tested in A549 cells; further: nearly all actives have a fitted effect of over 30% in size; inactives centre near -10
* marks the source's active call; other numbers are inactive results; [ ] = dose if it differs, or a comment. On the % scale 0 is the no-effect control and ±100 the full control effect; potency means the concentration at half of the fitted maximal effect.

For NC(=O)c1ccc[n+](CC(=O)Nc2ccccc2C(=O)O)c1 the results were VACV mCherry inh inactive and VACV Venus inh 0%.
CC(=O)Nc1nnc(-c2ccco2)o1 was read as VACV mCherry inh -1% and VACV Venus inh -8%.
`O=c1[nH]c2ccccc2c(O)c1O` gave VACV mCherry inh 5% and VACV Venus inh -5%.
CCN(CC)C(=O)CC(c1ccc(F)cc1)c1ccc(OC)cc1 (configuration not stated) was read as VACV mCherry inh -20% and VACV Venus inh -13%.
Cc1cc(-c2nnc(SCC(=O)Nc3ccc(S(N)(=O)=O)cc3)n2N)n[nH]1 was read as VACV mCherry inh inactive and VACV Venus inh -22%.
Screening Cc1ccc(S(=O)(=O)N2CCN(C(=O)CN3C(=O)NC(C)(c4ccc5ccccc5c4)C3=O)CC2)cc1 (configuration not stated) returned VACV mCherry inh -29% and VACV Venus inh -27%.
For CC(C)C(=O)N1N=C(c2ccc(NS(C)(=O)=O)cc2)CC1c1cccs1 (configuration not stated) the results were VACV mCherry inh -14% and VACV Venus inh -26%.
For COc1ccccc1C(=O)Nc1sc2c(c1C(N)=O)CCCC2 the results were VACV mCherry inh -28% and VACV Venus inh -20%.
`CC(=O)NCCNC(=O)c1ccc(Cn2c(=O)[nH]c3ccsc3c2=O)cc1` gave VACV mCherry inh -21% and VACV Venus inh 3%.
For COc1cccc(/C=N/NC(=O)Cn2cnc3c2c(=O)n(C)c(=O)n3C)c1 the results were VACV mCherry inh inactive and VACV Venus inh -12%.
For Cc1c(C(=O)O)oc2ccc(S(=O)(=O)NC3CCCCCCC3)cc12 the results were VACV mCherry inh -12% and VACV Venus inh -9%.
For CC(=O)c1cccc(NC(=O)CSc2nnc(C(C)N(C)C)n2Cc2ccccc2)c1 (configuration not stated) the results were VACV mCherry inh -15% and VACV Venus inh -6%.
For CCCCSCCCNC(=O)c1cn(CC)c2ccc(S(=O)(=O)N(C)C3CCCCC3)cc2c1=O the results were VACV mCherry inh -26% and VACV Venus inh -18%.
For CN1CCN(/N=C/c2c[nH]c3ccccc23)CC1 the results were VACV mCherry inh -8% and VACV Venus inh -5%.
For CCN(Cc1ccncc1)Cc1ccc2c(c1)CN(C(=O)c1cccc3c(C)c(C)[nH]c13)CCO2 the results were VACV mCherry inh -3% and VACV Venus inh 6%.
O=C(C1CCN(C2CC(=O)N(c3cccc(Cl)c3)C2=O)CC1)N1CCCC1 (configuration not stated) was read as VACV Venus inh -9%.
`O=C(NCCc1ccc(Cl)cc1)c1ccc2c(c1)N(Cc1ccc(Cl)cc1)C(=O)CS2` gave VACV mCherry inh -27% and VACV Venus inh -29%.
Cc1ccc(OCCC(=O)OCC(=O)NC2CCCC2)cc1 was read as VACV mCherry inh inactive and VACV Venus inh -9%.
`COc1ccc(C(=O)N2CCCCC2)cc1S(=O)(=O)Nc1cccc(C(=O)O)c1` gave VACV mCherry inh inactive and VACV Venus inh -12%.
Screening COCCN1Cc2cccc(C(=O)NCc3ccccc3OC)c2C1=O returned VACV mCherry inh -22% and VACV Venus inh -14%.
For COc1ccccc1NC(=O)CCNS(=O)(=O)c1ccc2[nH]c(=O)oc2c1 the results were VACV mCherry inh -4%[7.34 µM] and VACV Venus inh -5%[7.34 µM].
COc1cc(C(=O)NCC(c2ccco2)N(C)C)cc(OC)c1OC (configuration not stated) was read as VACV mCherry inh -14% and VACV Venus inh -6%.
`CN(C(=O)c1cccc(NC(=O)Cc2ccc(NC(=O)C3CCN(C(=O)C4CCCCC4)CC3)cc2)c1)C1CC1` gave VACV mCherry inh 3% and VACV Venus inh 2%.
For O=C(CCC1CCCN(C(=O)c2ccc3cc[nH]c3c2)C1)N1CCN(c2ccccn2)CC1 (configuration not stated) the results were VACV mCherry inh inactive and VACV Venus inh -12%.
`Cc1cc(C)cc(NC(=O)Nc2cc(-c3ccccc3)nn2C)c1` gave VACV mCherry inh 0% and VACV Venus inh 0%.
Screening Cc1ccccc1OCCC(=O)OCC(=O)Nc1c(C)nn(-c2ccccc2)c1C returned VACV mCherry inh inactive and VACV Venus inh -10%.
For O=C1c2ccccc2C(=O)N1Cc1nc2ccccc2c(=O)n1-c1ccccn1 the results were VACV mCherry inh -7% and VACV Venus inh -9%.
Screening CC(C)n1cnc2c(NCc3ccccc3)nc(NCc3ccccc3)nc21 returned VACV mCherry inh -9% and VACV Venus inh inconclusive.
Cc1ccc(NC(=O)Cn2c(=O)n(CCC(=O)NCc3ccccc3Cl)c(=O)c3ccccc32)c(C)c1 was read as VACV mCherry inh -10% and VACV Venus inh -9%.
`CCCC1CC(CSC(=N)N)OC1=O` (configuration not stated) gave VACV Venus inh -24%.
For COc1ccc(NC(=S)NC(NC(=O)CF)C(Cl)(Cl)Cl)c([N+](=O)[O-])c1 (configuration not stated) the results were VACV mCherry inh -15% and VACV Venus inh 3%.
For CC(=O)Nc1cccc(NC(=O)CSc2ccc(-c3sc(-c4ccccc4)nc3C)nn2)c1 the results were VACV mCherry inh inconclusive and VACV Venus inh -12%.
`O=C(NCc1ccc(Cl)cc1)C1CCN(S(=O)(=O)c2cccs2)CC1` gave VACV mCherry inh inactive and VACV Venus inh -7%.
For N=c1c(C(=O)NCc2ccco2)cc2c(=O)n3ccccc3nc2n1Cc1ccccc1 the results were VACV Venus inh -31%.
`COc1cc(SC)ccc1C(=O)NCCOc1ccc(C)c(C)c1` gave VACV mCherry inh -7% and VACV Venus inh -17%.
Screening O=C(/C=C\c1ccco1)NC(=S)Nc1ccccc1O returned VACV mCherry inh inconclusive and VACV Venus inh -7%.
For CN(Cc1ccccc1N1CCCC1)C(=O)c1cc2ccccc2o1 the results were VACV mCherry inh -8% and VACV Venus inh -11%.
Screening CCOC(=O)C1CCCN(C(=O)c2cc(-c3ccccc3)nc3ccccc23)C1 (configuration not stated) returned VACV mCherry inh 4% and VACV Venus inh -4%.
O=c1c2cc(Cl)cc(Cl)c2nc(CN2CCOCC2)n1-c1ccccc1F was read as VACV mCherry inh -8% and VACV Venus inh -4%.
`CN(C)S(=O)(=O)c1cccc(NC(=O)COC(=O)/C=C/c2ccc(Br)o2)c1` gave VACV mCherry inh -15% and VACV Venus inh -1%.
Nc1nccc(-c2cccs2)n1 was read as VACV mCherry inh inactive and VACV Venus inh -19%.
Cc1cccc(NC(=O)COc2ccc(Br)cc2C)n1 was read as VACV Venus inh 8%.
Screening O=C(NC12CC3CC(CC(C3)C1)C2)c1ccc(=O)oc1 returned VACV Venus inh -11%.
Screening Cc1cccn2c(=O)c3cc(C(=O)N(C)C)n(C)c3nc12 returned VACV mCherry inh -8% and VACV Venus inh -4%.
Screening COC(=O)[C@@]1(C)[C@H]2C(=O)N(Cc3ccccc3)C(=O)[C@H]2[C@H]2CN=C(SCc3ccc(C)cc3)N21 returned VACV mCherry inh inconclusive and VACV Venus inh -15%.
`OC(c1ccc(Cl)c(F)c1)c1ncc(-c2ccccc2Cl)[nH]1` (configuration not stated) gave VACV mCherry inh 7% and VACV Venus inh -11%.
Screening COc1ccc(-c2cc(C(=O)NCc3ccc(F)cc3)c3c(-c4ccc(F)cc4)[nH]nc3n2)cc1OC returned VACV mCherry inh inconclusive and VACV Venus inh inconclusive.
O=S(=O)(Nc1ccc(-c2ccccc2)cc1)c1ccccc1 was read as VACV mCherry inh -15% and VACV Venus inh -6%.
CC(=O)c1ccc(OCCCC(=O)NCCc2ccc(C(F)(F)F)cc2)cc1 was read as VACV mCherry inh inactive and VACV Venus inh -3%.
Screening COc1cc(/C=C2\C(=O)ON=C2c2ccccc2)cc(OC)c1OC returned VACV Venus inh -2%.
Screening O=C(CCl)N1CCN(S(=O)(=O)c2ccc3ccccc3c2)CC1 returned VACV mCherry inh inactive and VACV Venus inh -4%.
Screening CCOC(=O)COc1nc(-c2ccccc2)cc(-c2ccco2)c1C#N returned VACV mCherry inh -18% and VACV Venus inh -7%.
For O=S(=O)(c1ccc(NC(=S)N2CCN(c3ccccc3F)CC2)cc1)N1CCOCC1 the results were VACV mCherry inh -18% and VACV Venus inh -26%.
For CCc1ccccc1NNC(=O)CCc1ccccc1 the results were VACV mCherry inh -20% and VACV Venus inh -10%.
Screening Cc1cc(F)c(F)c(C(=O)N2CCOCC2)c1Cl returned VACV mCherry inh -10% and VACV Venus inh -13%.
`COc1ccc(CCNC(=O)CC(NC(=O)c2ccccc2Cl)c2ccccc2)cc1` (configuration not stated) gave VACV mCherry inh -15% and VACV Venus inh -5%.
For Cc1c(NC(=O)Cc2ccc(F)cc2)cccc1-c1nc2cccnc2s1 the results were VACV mCherry inh -15% and VACV Venus inh -14%.
COc1ccccc1N(CC(=O)NCCSCc1cccc(C)c1)S(=O)(=O)c1ccccc1 was read as VACV mCherry inh -5% and VACV Venus inh -23%.
`O=C(C1CC1)N1CCc2cc(Br)cc(S(=O)(=O)NCCCN3CCCCC3)c21` gave VACV mCherry inh -27% and VACV Venus inh -11%.
Screening Cc1ccccc1C(=O)NC1CCN(C(=O)Nc2ccc(F)cc2)CC1 returned VACV mCherry inh -10% and VACV Venus inh 6%.
`c1ccc2occc2c1` gave VACV mCherry inh inactive and VACV Venus inh 3%.
`CNC(=S)NNc1nc(C)cc(C)n1` gave VACV mCherry inh -12% and VACV Venus inh -14%.
`Cc1csc2nc(O)c(C(=O)NCCN3CCOCC3)c(=O)n12` gave VACV mCherry inh -15% and VACV Venus inh -6%.
Screening O=C(COC(=O)c1cc(-c2cccs2)nc2ccccc12)c1ccc(Br)cc1 returned VACV mCherry inh -10% and VACV Venus inh -2%.
O=C1CN(c2ccccc2)C(=S)N1C(=O)c1ccc(Br)cc1 was read as VACV mCherry inh -2% and VACV Venus inh -16%.
For CCOc1ccccc1NC(=O)Cn1ccn(-c2ccccc2)c(=O)c1=O the results were VACV mCherry inh -3% and VACV Venus inh -6%.
`CCN(C(=O)c1ccc2c(OC)n(CC)nc2c1)c1ccc(OC)cc1` gave VACV mCherry inh -2% and VACV Venus inh -2%.
Cn1c(CCCNC(=O)c2cccs2)nc2ccccc21 was read as VACV mCherry inh -14% and VACV Venus inh -8%.
Screening Cc1ccc(C(=O)NCCCc2ccccc2)s1 returned VACV mCherry inh -10% and VACV Venus inh -2%.
`Cc1nnsc1C(=O)N/N=C/c1c(F)cccc1Cl` gave VACV mCherry inh -15% and VACV Venus inh 0%.

Sorted by formula weight (rising): part of the list above
`c1ccc2occc2c1` gave VACV mCherry inh inactive and VACV Venus inh 3%.
`Cc1nnsc1C(=O)N/N=C/c1c(F)cccc1Cl` gave VACV mCherry inh -15% and VACV Venus inh 0%.
Screening O=C(COC(=O)c1cc(-c2cccs2)nc2ccccc12)c1ccc(Br)cc1 returned VACV mCherry inh -10% and VACV Venus inh -2%.

Continued.
`CCOC(=O)C(=CNc1ccc(Oc2cncc(Cl)c2)nc1)C(=O)OCC` gave VACV mCherry inh inactive[7.34 µM] and VACV Venus inh -1%[7.34 µM].
Screening O=C1/C(=C/c2ccncc2)SC(=S)N1N1CCOCC1 returned VACV mCherry inh -15% and VACV Venus inh -6%.
`COc1ccc(C)cc1NC(=O)C1CCN(C(=O)c2ccco2)CC1` gave VACV mCherry inh -3% and VACV Venus inh -15%.
CC1CC=C(O)C12OCC(C)(C)CO2 (configuration not stated) was read as VACV mCherry inh inactive and VACV Venus inh -14%.
`CC(C)(C)NC(=O)c1cnn2c1NC(c1ccc(F)cc1)CC2C(F)(F)F` (configuration not stated) gave VACV Venus inh -10%.
For CC(=O)n1c(-c2ccccc2)c(-c2ccccc2)n(C)c1=O the results were VACV mCherry inh -14% and VACV Venus inh -25%.
`O=C(NCC(=O)N(c1cccnc1)C(C(=O)NC1CCCC1)c1cccs1)c1ccco1` (configuration not stated) gave VACV mCherry inh inactive and VACV Venus inh -5%.
For COc1ccc(NC(=O)CSc2ccc(-c3cccnc3)nn2)c(OC)c1 the results were VACV mCherry inh inactive and VACV Venus inh -4%.
Screening Cc1c(NC(=O)[C@@H](NC(=O)c2ccc(Cl)c([N+](=O)[O-])c2)C(C)C)c(=O)n(-c2ccccc2)n1C returned VACV mCherry inh -8% and VACV Venus inh -8%.
CCNC(=S)N1CCN(S(=O)(=O)c2ccc(C)cc2)CC1 was read as VACV mCherry inh -5% and VACV Venus inh -7%.
Screening Cc1ccccc1CN1[C@@H](C(C)C)COCCS1(=O)=O returned VACV mCherry inh -12% and VACV Venus inh -10%.
For Cc1cc(C)c(C)c(S(=O)(=O)N(C)C2CCN(C)CC2)c1C the results were VACV mCherry inh inconclusive and VACV Venus inh -27%.

By substructure: the entries above with a thiophene ring, fused or not (9)
For CC(C)C(=O)N1N=C(c2ccc(NS(C)(=O)=O)cc2)CC1c1cccs1 (configuration not stated) the results were VACV mCherry inh -14% and VACV Venus inh -26%.
For COc1ccccc1C(=O)Nc1sc2c(c1C(N)=O)CCCC2 the results were VACV mCherry inh -28% and VACV Venus inh -20%.
`CC(=O)NCCNC(=O)c1ccc(Cn2c(=O)[nH]c3ccsc3c2=O)cc1` gave VACV mCherry inh -21% and VACV Venus inh 3%.
`O=C(NCc1ccc(Cl)cc1)C1CCN(S(=O)(=O)c2cccs2)CC1` gave VACV mCherry inh inactive and VACV Venus inh -7%.
Nc1nccc(-c2cccs2)n1 was read as VACV mCherry inh inactive and VACV Venus inh -19%.
Screening O=C(COC(=O)c1cc(-c2cccs2)nc2ccccc12)c1ccc(Br)cc1 returned VACV mCherry inh -10% and VACV Venus inh -2%.
Cn1c(CCCNC(=O)c2cccs2)nc2ccccc21 was read as VACV mCherry inh -14% and VACV Venus inh -8%.
Screening Cc1ccc(C(=O)NCCCc2ccccc2)s1 returned VACV mCherry inh -10% and VACV Venus inh -2%.
`O=C(NCC(=O)N(c1cccnc1)C(C(=O)NC1CCCC1)c1cccs1)c1ccco1` (configuration not stated) gave VACV mCherry inh inactive and VACV Venus inh -5%.
